hIAP_act – human IAP activators, primary screen, biochemical, luminescence, uHTS | Intestinal-type alkaline phosphatase (Homo sapiens), P09923 | purified human IAP, CDP-Star luminescence, 30 min; active compounds read high; 1 = vehicle-only enzyme, 0 = enzyme-free background | activation factor at 10 µM | 0.16% of 330,000 active | AID 2524, 2010;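 active = activation factor of the enzyme at least 2-fold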; also: the source names both 10 and 20 µM as test concentration; values of inactives mirror those of a sister screen read the other way
hIAP_inh – human IAP inhibitors, primary screen, biochemical, luminescence, uHTS; Intestinal-type alkaline phosphatase (Homo sapiens), P09923; purified IAP, CDP-Star luminescence, 30 min; inhibition, % at 10 µM; 0.12% of 330,000 active;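 active = inhibition reaching a set limit with compound at 10 µM in the primary screen, cut at about 35% in these data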;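 also: plate controls were DMSO wells with enzyme for no effect and no-enzyme buffer wells for full effect; values of inactives mirror those of a sister screen read the other way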
beta_cell_repl – inducers of MIN6 beta-cell proliferation, primary screen, ATP luminescence, uHTS | MIN6 cells proliferation, ATPlite luminescence, 48 h; cells starved in 0.2% serum; 100% = growth in 10% serum | proliferation, % at 10 µM | 0.29% of 330,000 active;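 active = compounds whose signal lies at least 3.5 SD above the mean of all wells on their plate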;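 also: 0% = DMSO-treated cells in low-serum medium and 100% = 10% serum control; some compounds called inactive have numbers as strong as hits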
mIAP_activ – activators of mouse IAP, primary screen, biochemical, luminescence, uHTS; activation factor at 10 µM; AID 2805, 2010; intestinal alkaline phosphatase [Mus musculus]; 0.24% of 330,000 active; muIAP, CDP-Star luminescence, 30 min; active compounds read high; 1 = vehicle-only enzyme signal, 0 = enzyme-free wells;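 active = activation factor of at least 2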; also: the source names both 10 and 20 µM as test concentration; values of inactives mirror those of a sister screen read the other way
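also added = chemiluminescent substrate CDP-Star | test system = mouse IAP enzyme | signal = chemiluminescence readout | compound = DMSO-dissolved test compounds | incubation = 30 min at room temperature | benchmarks = DMSO wells, no-enzyme wells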
mIAP_inh – inhibitors of mouse IAP, primary screen, biochemical, luminescence, uHTS; intestinal alkaline phosphatase [Mus musculus]; purified mouse IAP, CDP-Star luminescence, 30 min; inhibition, % at 10 µM; 0.2% of 330,000 active;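 active = inhibition of at least 40% at 10 µM in the primary screen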;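 also: plate controls were DMSO with enzyme for no effect and no enzyme wells for full effect; values of inactives mirror those of a sister screen read the other way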
* hit, by the source's call; & = joins results of further samples.

SMILES hIAP_act hIAP_inh beta_cell_repl mIAP_activ mIAP_inh
CCN(CC)CC(=O)Nc1c(C)cccc1C 1.1&0.83 -11&17 -2&2 1&1.1 0&-8
S=c1nc(-c2ccccc2Cl)[nH][nH]1 1 -2 -2 0.98 2
Cc1ccc(CSc2nc(N)cc(=O)[nH]2)cc1 1.1 -9 1 1.1 -10
Cc1ccc(NC(=O)c2ccc(CN3CCN(C)CC3)cc2)cc1Nc1nccc(-c2cccnc2)n1 1.1 -11 -8 1 -1
CC[n+]1c(/C=C/N(C)c2ccccc2)oc2ccccc21 0.83 17 0 0.96 4
CC(C)(C)C(=O)CSc1ncnc2sc3c(c12)CCC3 0.96 4 -1 1.1 -12
C[C@@H]1O[C@@H]1P(=O)(O)O 0.92 8 -2 0.96 4
Cc1noc(NS(=O)(=O)c2ccc(N)cc2)c1C 0.92 8 -3 1.1 -10
CN(C)CCCN1c2ccccc2Sc2ccc(C(F)(F)F)cc21 1 -2 -8 0.94 6

A section of the results above, as a working copy:
SMILES hIAP_act hIAP_inh beta_cell_repl mIAP_activ mIAP_inh
Cc1noc(NS(=O)(=O)c2ccc(N)cc2)c1C 0.92 8 -3 1.1 -10
CN(C)CCCN1c2ccccc2Sc2ccc(C(F)(F)F)cc21 1 -2 -8 0.94 6

2 entries picked at random from those above:
SMILES hIAP_act hIAP_inh beta_cell_repl mIAP_activ mIAP_inh
CC[n+]1c(/C=C/N(C)c2ccccc2)oc2ccccc21 0.83 17 0 0.96 4
Cc1ccc(CSc2nc(N)cc(=O)[nH]2)cc1 1.1 -9 1 1.1 -10

Compounds shown so far that have an NH in an aromatic ring, in the order listed:
SMILES hIAP_act hIAP_inh beta_cell_repl mIAP_activ mIAP_inh
S=c1nc(-c2ccccc2Cl)[nH][nH]1 1 -2 -2 0.98 2
Cc1ccc(CSc2nc(N)cc(=O)[nH]2)cc1 1.1 -9 1 1.1 -10

In the list so far, two contain a carbonyl joined to an NH by a bond outside any ring:
SMILES hIAP_act hIAP_inh beta_cell_repl mIAP_activ mIAP_inh
CCN(CC)CC(=O)Nc1c(C)cccc1C 1.1&0.83 -11&17 -2&2 1&1.1 0&-8
Cc1ccc(NC(=O)c2ccc(CN3CCN(C)CC3)cc2)cc1Nc1nccc(-c2cccnc2)n1 1.1 -11 -8 1 -1

Source: PubChem (Sanford-Burnham Center for Chemical Genomics)

This is a subset. The share of hits here may be higher or lower than overall.
